VACV mCherry inh – inhibitors of vaccinia virus infection (mCherry reporter signal). Vaccinia virus mCherry reporter infection, fluorescence; about a quarter of the inactives have no number. Potency, µM (top dose mostly 36.5 µM), for the others: at the top dose activity change, negative = inhibition, hits mostly inhibitors. AID 720579. hit rate 0.63% among 310,000; active = well fitted inhibition curve with a large enough effect; inconclusive = small, poorly fitted or top-dose-only effect; inactive = no such curve, though single readings can be large or run the other way; tested in A549 cells; note: nearly all actives have a fitted effect of over 35% in size; inactives centre near -10
Vaccinia Venus – inhibitors of vaccinia virus (Venus reporter); hit rate 0.46% among 330,000; Vaccinia virus Venus reporter expression, fluorescence; AID 720580; Potency, µM (highest dose often 36.5 µM), inactives show top-dose activity change, negative = inhibition, hits mostly inhibitors; active means well fitted inhibition curve with a large enough effect; inconclusive means small, poorly fitted or top-dose-only effect; inactive means no such curve, though single readings can be large or run the other way; tested in A549 cells; note: nearly all actives have a fitted effect of over 30% in size; inactives centre near -10
* hit, by the source's call; i = inactive; ? = inconclusive; · = no result given; [ ] = remark or other dose. % is set by controls: 0 for no effect and ±100 for the full control effect; potency is the fitted concentration of half-maximal effect.

SMILES	VACV mCherry inh	Vaccinia Venus
Cc1ccccc1-n1nc(-c2cccnc2)cc1C(=O)N/N=C/c1ccncc1	i	-7.4%
Cc1ccc(C(=O)NCC2CCCN2S(=O)(=O)c2cccs2)cc1C (centres undefined)	-26.3%	-20.9%
CCOC(=O)CSc1nnc(NC(=O)CN2CCN(C=O)CC2)s1	-8.5%	-8.9%
COCCCNC(=O)Cn1cnc(C(=O)Nc2ccc(C)c(C)c2)n1	i	-4.1%
COc1ccc(CNC(=O)C2CC(c3ccccc3[N+](=O)[O-])=NO2)cc1 (centres undefined)	i	-23.6%
O=C(CSc1ccccc1)NN1C(=O)c2ccccc2C1=O	-5.7%	-8.8%
CCCNC(=O)C1CCC(Cn2c(=O)c3sccc3n(CC(=O)N3CCC(C)CC3)c2=O)CC1 (centres undefined)	-18.4%	-15.2%
COc1ccc(NC(=O)C2CCCN(S(=O)(=O)c3ccc4[nH]c(=O)ccc4c3)C2)cc1OC (centres undefined)	-3.5%[7.34 µM]	5.0%[7.34 µM]
COc1ccc(-c2nc(CS(=O)CC(=O)NCC3CCCO3)c(C)o2)cc1 (centres undefined)	-20.2%	-15.3%
CCC(C)c1ccc(O)c(NC(=S)NC(=O)c2cccs2)c1 (centres undefined)	?	?
O=C(NCCCNC(=O)c1c(F)cccc1F)c1c(F)cccc1F	-8.6%	-7.6%
O=C(Nc1cccc(F)c1)c1cc(S(=O)(=O)N2CCC(C(=O)O)CC2)ccc1F	-11.0%	-1.1%
COC(=O)/C(=C/c1ccco1)NC(=O)c1ccccc1	-10.2%	-9.4%
O=C(Nc1ccccc1C(=O)NC(Cc1ccccc1)C(=O)NC1CCCCC1)c1ccccc1 (centres undefined)	-2.0%	-7.5%
COc1cccc(NC(=O)Cc2nc(-c3ccccc3)sc2-c2ccc(C)cc2)c1	i	-4.0%
CCOC(=O)C1(C)CCN1C(=O)c1ccc(C)cc1 (centres undefined)	i	-27.3%
CCCCC[C@H](O)/C=C/[C@H]1C=CC(=O)[C@@H]1C/C=C\CCCC(=O)O	-14.6%[3.33 µM]	-15.4%[3.33 µM]
Nc1nc(SCC(=O)OCc2ccccc2)[nH]c(=O)c1NC(=O)c1ccco1	i	5.7%
CC(=O)c1ccc(N(C(=O)CS(=O)CC(=O)Nc2ccc(F)cc2)C(C(=O)NC2CCCCC2)c2cccs2)cc1 (centres undefined)	-14.4%	-14.2%
O=C(c1ccc(C(F)(F)F)cc1)N1CCC(c2noc(-c3ccc(S(=O)(=O)N4CCCC4)cc3)n2)CC1	?	?

A different layout for part of the listing above:
The line under a structure holds: VACV mCherry inh	Vaccinia Venus
COc1ccc(-c2nc(CS(=O)CC(=O)NCC3CCCO3)c(C)o2)cc1 (centres undefined)
→ -20.2%	-15.3%
O=C(Nc1ccccc1C(=O)NC(Cc1ccccc1)C(=O)NC1CCCCC1)c1ccccc1 (centres undefined)
→ -2.0%	-7.5%
COc1cccc(NC(=O)Cc2nc(-c3ccccc3)sc2-c2ccc(C)cc2)c1
→ i	-4.0%

(further entries)
SMILES	VACV mCherry inh	Vaccinia Venus
Cc1cccc(N2CCN(C(=O)CCCn3ncn4c(cc5occc54)c3=O)CC2)c1C	?	-15.5%
COc1ccc(NC(=O)C2(C)CCN2Cc2ccc(OC(F)(F)F)cc2)cc1OC (centres undefined)	-13.1%	-11.8%
CCn1c(SCC(=O)Nc2ccc3c(c2)OCCO3)nnc1-c1c[nH]c2ccccc12	?	-25.0%
CC1CCCC(NC(=O)CNC(=O)c2cccs2)C1C (centres undefined)	-10.7%	-8.2%
O=C(NCc1cccs1)C1CCN(C(=O)N2CCOc3ccccc32)CC1	-3.7%	1.6%
COc1cc(Br)cc(C(c2c(C)n(C)n(-c3ccccc3)c2=O)c2c(C)n(C)n(-c3ccccc3)c2=O)c1O	-9.6%	4.6%
O=S1(=O)c2ccccc2C(CCO)N1Cc1ccccc1 (centres undefined)	i	-15.9%
CN(C)c1ccc(/C=N/N2C(=S)SC(C)(C)C2N(O)C(=O)Nc2ccc([N+](=O)[O-])cc2)cc1 (centres undefined)	?	-19.0%
COc1cccc(/C=C2\CCC(C3CCCC3)C2=O)c1 (centres undefined)	-0.9%	0.2%
COc1cccc(N2CC(C(=O)Nc3nnc(SCC(=O)NC4CCCC4)s3)CC2=O)c1 (centres undefined)	i	5.1%
Oc1cc(O)cc(-c2cc3ccc(O)cc3o2)c1	-7.5%	-7.0%
O=[N+]([O-])c1ccccc1NCCNS(=O)(=O)c1ccc(Cl)cc1	-2.6%	-9.3%
CCOC(=O)c1c(CSc2ccccc2)n(C)c2cc(Br)c(O)c(CN(C)C)c12	-17.2%	-17.8%
CCOc1cc(C2C(C(=O)c3ccccc3)=C(C(=O)OC)Nc3nnnn32)ccc1O (centres undefined)	-2.2%	5.8%
CC1=C(C(=O)OCCBr)C(c2cccc3ccccc23)NC(=O)N1 (centres undefined)	-4.7%	-9.0%
COc1ccc(CCNC(=O)COC(=O)C2CC2)cc1OC	i	-5.8%
O=C(CSc1n[nH]c(-c2ccccc2O)n1)N1CCOCC1	-12.0%	-11.2%
CCN1C(=O)[C@H]2[C@@H](c3ccc(C)cc3)N[C@]3(CCCN(Cc4ccc(C)cc4)C3=O)[C@H]2C1=O	-9.0%	?
O=C(/C=C/c1ccccc1)OCCCCN=C1NS(=O)(=O)c2ccccc21	-15.8%	-3.3%
COC(=O)C[C@@H]1CC[C@@H](NC(C)=O)[C@@H](CO)O1	4.4%	-17.0%
CNS(=O)(=O)c1cccc(C(=O)OCC(=O)C23CC4CC(CC(C4)C2)C3)c1	-23.4%	-15.3%
COC(=O)c1ccc(SCC(=O)N2CCC(C)CC2)c([N+](=O)[O-])c1	-0.1%	-2.4%
CCOC(=O)c1c(C)c(-c2ccccc2)n(CC(=O)NCCc2cccc(C)c2)c1C	-4.6%	-4.0%
CC(C)C(NC(=O)c1ccccc1)C(=O)N/N=C\c1ccco1 (centres undefined)	i	-3.1%
CC(C)c1ccc(C2CC(=O)N3CN(C4CCCCC4)CSC3=C2C#N)cc1 (centres undefined)	i[7.34 µM]	-7.9%[7.34 µM]
Cc1c(Cl)cccc1NC(=O)Cn1c(=O)n(Cc2ccco2)c(=O)c2oc3ccccc3c21	-18.5%	-24.5%
O=C(COc1ccccc1)NC1CC(=O)N(c2ccc3c(c2)OCCO3)C1 (centres undefined)	-7.0%	-0.2%
CC(=O)Nc1c(Cl)cc2c(c1Cl)Cc1ccccc1-2	-29.8%	-9.9%
Cc1cc(OCc2ccc(C(=O)NN=C3CCCC3)cc2)ccc1Cl	?	-27.2%
CC(C)(C)c1cc(NC(=O)c2c(F)cccc2Cl)n(-c2ccccc2)n1	-11.2%	2.5%

Pulled by compound from the entries so far (3):
SMILES	VACV mCherry inh	Vaccinia Venus
CNS(=O)(=O)c1cccc(C(=O)OCC(=O)C23CC4CC(CC(C4)C2)C3)c1	-23.4%	-15.3%
CC(=O)Nc1c(Cl)cc2c(c1Cl)Cc1ccccc1-2	-29.8%	-9.9%
CC(C)C(NC(=O)c1ccccc1)C(=O)N/N=C\c1ccco1 (centres undefined)	i	-3.1%

Next section.
SMILES	VACV mCherry inh	Vaccinia Venus
c1ccc2c(c1)nc1n2CCC1	-2.6%	?
CCOC(=O)c1cc[n+](CC(=O)c2ccc(F)cc2)cc1	-11.3%	-2.0%
COc1ccc(N/C(=N\c2nc(C)cc(C)n2)NC(C)=O)cc1OC	-16.4%	?
Cc1ccc(Cl)cc1NC(=O)C1CCN(S(C)(=O)=O)CC1	1.4%	7.2%
COc1cccc(S(=O)(=O)N(C)C[C@@H]2Oc3cc(Br)ccc3S(=O)(=O)N([C@@H](C)CO)C[C@@H]2C)c1	-14.9%	-19.4%
Cc1cc2oc(C(=O)NCCc3ccc(S(N)(=O)=O)cc3)c(C)c2cc1C	i	-16.0%
CC(C)NC(=O)CN1C(=O)C(C)(C)Oc2ccc(C(=O)NC3CCCCC3)cc21	-5.5%	-8.7%
COc1cc(/C=C/C(=O)Nc2nnc(CC(C)C)s2)cc(OC)c1OC	i	-10.5%
CCOC(=O)c1sc(-c2ccc(Cl)cc2)nc1O	-22.0%	-6.4%
Cc1cccc(N2CC(C)Cn3c2nc2c3c(=O)[nH]c(=O)n2C)c1 (centres undefined)	?	?
Cn1c(=O)cc(SCC(=O)N2CCN(c3ccccc3F)CC2)c2ccc(Cl)cc21	0.9%	12.1%
COCCNC(=O)c1cc2nc(-c3ccc(F)cc3)cc(C(F)(F)F)n2n1	-7.0%	-2.4%
COc1ccc(S(=O)(=O)N2CCCC2)c(Cl)c1Cl	-13.6%	-21.7%
COc1ccc(-c2sc3cc4c(cc3c2-c2ccc(OCCN3CCOCC3)cc2)OCO4)cc1	-20.1%	-8.6%
CC(=O)Nc1nc(C)c(Oc2ccc(Cl)cc2)c(=O)[nH]1	-13.3%[7.34 µM]	-12.2%[7.34 µM]
COC(=O)c1ccc(CNC(=O)Cn2cnc3c(NCc4ccccc4)ncnc32)cc1	-15.2%	-20.1%
CCOC(=O)N1CCN(C2CCCN(C(=O)c3ccccc3SC)C2)CC1 (centres undefined)	11.0%[7.34 µM]	15.2%[7.34 µM]
O=C(CSc1n[nH]c(-c2ccc(Br)cc2)n1)N1CCOCC1	1.0%	-2.2%
S=C(NCCCN1CCOCC1)Nc1cccc(-c2nnc3n2CCCCC3)c1	-11.5%	-8.1%
CCN(CC)C(=O)C1=C(C)N(CCC2=CCCCC2)C(=O)C(CC(=O)NCc2ccco2)C1 (centres undefined)	i	-16.0%
COc1c(C)cc(C(=O)C2CCCN(Cc3cnc(C)s3)C2)cc1C (centres undefined)	i	-4.5%
CN(C)/C=N/c1cc(=O)[nH]c(=O)n1Cc1ccccc1	i	-1.7%
CC(=O)NC(=S)Nc1ccc(NC(=S)NC(=O)/C=C/c2ccco2)cc1	i	-6.9%
COc1ccccc1NC(=O)c1cnc2n(c1=O)CCS2	-23.4%	-13.9%
Cc1ccc(S(=O)(=O)NCC2CCC(C(=O)N(C)Cc3ccccc3)CC2)cc1 (centres undefined)	-17.3%	-17.1%
O=C(CSc1nc(-c2ccccc2)c(-c2ccccc2)[nH]1)NCC1CCCO1 (centres undefined)	i	-10.4%
NC(=O)C(=O)NN=C1CCC(c2ccccc2)CC1 (centres undefined)	-2.4%	-15.5%
COc1ccc2[nH]cc(C(=O)CCl)c2c1	-15.2%[7.34 µM]	-4.4%[7.34 µM]
CCn1c(SCC(=O)NCC2CCCO2)nnc1-c1c[nH]c2ccccc12 (centres undefined)	·	-9.1%
N=C(N)c1ccc2cc(OC(=O)c3ccc(N=C(N)N)cc3)ccc2c1	-13.2%[60.7 µM]	-6.9%[60.7 µM]
Cc1nn(-c2ccccc2)c(C)c1NC(=O)COC(=O)Cc1cccc(C(F)(F)F)c1	i	0.9%
O=C(CCCOc1ccccc1)Nc1cccc(S(=O)(=O)N2CCCCC2)c1	i	-7.8%
CC1CC2(C)Oc3ccccc3CC2C(C)C1CNCCCN(C)C (centres undefined)	?	14.1µM*
CCN1CCN(CCCN(Cc2ccco2)C(=S)Nc2ccccc2Cl)CC1	-7.5%	-3.5%
CCN(C(=O)CSc1nc2ccccc2[nH]1)c1ccccc1	-17.5%	-10.2%
COc1cc(C(=O)Nc2cccc(S(=O)(=O)N3CCCC3)c2)c([N+](=O)[O-])cc1OC	i	-8.1%
CC(C)CCOC(=O)C1[C@H]2C(=O)N(Cc3cccs3)C[C@]23C=C[C@H]1O3 (some centres undefined)	·	-22.8%
O=C1C=CC2(O[C@H](c3ccccc3)[C@@H](c3ccccc3)O2)[C@H](Sc2ccccc2O)C1	10µM*	?
COc1ccc(NC(=O)N2CCC(C(=O)c3ccc4c(c3)OCCO4)CC2)cc1	-4.6%	-2.8%
CCC(=O)N1CCc2cc(S(=O)(=O)NC(C(=O)NCCc3ccccc3)C(C)C)ccc21 (centres undefined)	-9.7%	-11.6%
COc1cc2ccccc2cc1C(=O)Nc1cccc(-c2nc3cc(C)ccc3o2)c1C	-10.1%	5.8%
O=C(NC(c1ccccc1)c1ccccc1)c1ccc(CO)cc1	-6.0%	-2.2%
COc1cc(OC)c(NC(=O)c2ccc3c(c2)N(Cc2ccc(C)cc2)CCS3)cc1Cl	-11.1%	-3.2%
Cc1ccccc1-c1cnc2c(c1)C(=O)N([C@@H](C)CO)C[C@@H](C)[C@H](CN(C)Cc1ccccc1F)O2	-10.3%	-16.6%
O=C(O)c1ccccc1C(=O)NCC(O)COCC1CC=CCC1 (centres undefined)	-21.2%	-6.4%
Cc1ccc(S(=O)(=O)NNC(=O)c2cnn(-c3ccc(Cl)cc3)c2C(F)(F)F)cc1	-7.0%	-27.9%
Cc1nc2ccc(NS(=O)(=O)c3ccc(C)c(C)c3)cc2s1	-8.2%	?
CCOc1cccc(C2Oc3nc(SC)nnc3-c3ccccc3N2C(C)=O)c1OC (centres undefined)	-9.1%	10.6%
C[C@@H]1[C@H]2[C@@H]3CC[C@@H](C3)[C@H]2CN[C@H]1c1cn(Cc2ccccc2)c2ccccc12	i	?
CC1=C(C#N)CCC(=O)N1Cc1ccc(C)cc1	·	6.2%
(further entries)
SMILES	VACV mCherry inh	Vaccinia Venus
O=C(Cc1ccc(F)cc1)NCCc1ccc(F)cc1	i	-12.6%
O=C(Cn1ccc2ccccc21)Nc1ccc2c(c1)OCO2	i	1.5%
Nc1ccc(C(=O)N/N=C/c2cn(Cc3ccccc3F)c3ccccc23)cc1	?	-28.1%
Cc1ccc(-c2nc(S(=O)(=O)c3ccc(C)cc3)c(N3CCCCC3)o2)cc1	-12.9%	-4.3%
COc1ccc(CN2C(=O)C(CC(=O)NC(c3ccccc3)c3ccccc3)CC(C(=O)N(C(C)C)C(C)C)=C2C)cc1 (centres undefined)	-11.6%	?
O=C(Nc1cccnc1)c1cccc(S(=O)(=O)N2CCCCC2)c1	i	-9.2%

Screening data (PubChem BioAssay)
